HCMV NEC inh: inhibitors of HCMV UL50-UL53 nuclear egress complex interaction; actives 0.15% (n = 190,000); AID 1918969; inhibition, % (test concentration not listed); HTRF UL50-UL53 interaction, normalized percent inhibition;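 active means both replicates at 50% or more, plus weaker picks with an unusually low signal ratio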;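 further: stock transfer was 100 nL into about 20 µL; 0% = negative control wells and 100% = wells with untagged competitor protein; inactives centre near -12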
Sa growth 42C: S. aureus growth inhibition; S. aureus RN4220 growth, OD600, 20 h, 42 °C; active compounds read low; relative growth, % (concentration not given with the values); actives 0.53% (n = 170,000);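 active means growth at 42 °C up to 50% and 20 or more points under that at 30 °C, or under 10% at both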;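 further: 300 nL library stock went into each well; scaled to the means of positive and negative controls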
GIV Gai3 FP: GIV-Galpha-i interaction inhibition. P08753. actives 0.42% (n = 210,000). percent of control (FP), % (test concentration not listed). Galpha-i3/FITC-GIV peptide fluorescence polarization, 90 min; active compounds read low; scaled: aluminum fluoride 0%, vehicle 100%;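 active means replicate mean at 85% of control or lower, very high polarization wells dropped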;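 further: lower values mean more displacement of the GIV peptide from Galpha-i3; wells of about 15 µL received 100 nL stock; the first replicate is given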
Target sequence (P08753 whole entry, looked up): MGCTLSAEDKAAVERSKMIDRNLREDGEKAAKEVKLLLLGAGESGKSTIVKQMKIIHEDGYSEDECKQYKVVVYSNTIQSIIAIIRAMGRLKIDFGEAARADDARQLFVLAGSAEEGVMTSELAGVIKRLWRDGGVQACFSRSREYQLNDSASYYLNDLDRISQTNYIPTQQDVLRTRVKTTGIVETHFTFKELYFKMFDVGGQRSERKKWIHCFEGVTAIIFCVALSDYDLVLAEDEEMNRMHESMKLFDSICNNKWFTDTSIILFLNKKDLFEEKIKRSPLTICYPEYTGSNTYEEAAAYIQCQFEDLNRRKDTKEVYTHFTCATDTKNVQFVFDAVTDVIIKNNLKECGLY
Sa growth 42C second temp: recorded beside Sa growth 42C, whose call it bears; relative growth, %; measured here: growth at 30 °C;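 optical density after 20 h as mean of two plates; 100% = untreated growth and lower means inhibition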
* marks the source's active call; other numbers are inactive results; . = no result given; & = joins results of further samples; ! = a repeat was not active.

Sample of the layout (2 entries):
SMILES	HCMV NEC inh	Sa growth 42C second temp	Sa growth 42C	GIV Gai3 FP
Cc1ccc(S(=O)(=O)Cc2ccc(C(F)(F)F)cc2)cc1	-2	112	101	95
Cn1c(-c2ccccc2)nn(CN2CCC(C(N)=O)CC2)c1=S	.	76	89	100

The listing, repeating the preview:
SMILES	HCMV NEC inh	Sa growth 42C second temp	Sa growth 42C	GIV Gai3 FP
Cc1ccc(S(=O)(=O)Cc2ccc(C(F)(F)F)cc2)cc1	-2	112	101	95
Cn1c(-c2ccccc2)nn(CN2CCC(C(N)=O)CC2)c1=S	.	76	89	100
CC(NC(=O)c1ccccc1NC(=O)c1ccco1)C(=O)NN(c1ccccc1)c1ccccc1 (stereo not drawn)	-33	90	84	.
CCCCC(=O)Nc1ccc2nc(SCCOc3ccccc3)sc2c1	-18	.	.	97
CCOc1ccc(NC(=O)c2ncn(-c3ccccc3)n2)cc1	6	94	121	104
CCn1c(=O)c2c(C(=O)Nc3ccc(C)c(F)c3)cc(=O)n(CC)c2n(C)c1=O	-21	.	.	105
Nc1cc(-c2ccccc2)n(C(=O)Nc2ccc(Cl)cc2)n1	.	76	101	98
Cc1cc(C)n(CC(=O)N/N=C/c2ccccc2)n1	-26	83	83	100
CCc1ccc(OC)c(-c2csc(N)n2)c1	-15	75	94	104
COc1ccc(CNC(=O)CS(=O)Cc2nc(-c3cccc(C)c3)oc2C)cc1 (stereo not drawn)	-32	90	92	103
CCOc1ccc(CNc2nc3nc(C)c(Cc4ccccc4)c(=O)n3[nH]2)cc1	-3	90	120	103
CC(=O)N1CCN(c2csc3ccc(Cl)cc3c2=O)CC1	.	84	93	110
COC(=O)C1C(=O)NCC1c1ccc(OC)cc1 (stereo not drawn)	-6	99	101	97
CC(=C/c1ccccc1)/C=N/n1c(C)n[nH]c1=S	-47	96	117	102
CCOc1ccc(Nc2c3c4c(cccc4[nH]c2=O)C(=O)c2ccccc2-3)cc1	-30	92	122	32*
COc1ccccc1C1C(C(=O)c2sc(C)nc2C)=C(O)C(=O)N1CCCN1CCOCC1 (stereo not drawn)	1	99	99	107
NNc1ncc(Cl)cc1C(F)(F)F	-31	51	82	110
Clc1ccccc1CNCCCSc1nnnn1-c1ccccc1	-30	87	110	106
O=C(C1CC1)N1CCC(c2nc(-c3ccc(F)cc3)no2)CC1	-8	.	.	101
COc1ccc(NC(=O)c2nn(-c3ccccc3)ccc2=O)cc1	-40	80	94	102
CCOC(=O)C1CCN(C(=O)Cn2ncc3c([nH]c4ccccc43)c2=O)CC1	.	93	110	104
CNC(=O)Cc1coc2ccc3ccccc3c12	.	85	119	105
CCOc1ccc2ccccc2c1/C=C(\C#N)C(=O)NCc1ccco1	-26	95	83	100
CCOC(=O)N1CCN(CC(O)c2ccc3cc[nH]c3c2)CC1 (stereo not drawn)	-4	85	124	102
O=C1CC(c2cccc(Br)c2)n2ncnc2N1 (stereo not drawn)	-15	91	96	97
Cc1ccc(-c2ccc(N3CCC(C(=O)NC(C)c4ccc(C)cc4)CC3)nn2)cc1 (stereo not drawn)	-16	.	.	94
Cc1onc(-c2c(F)cccc2Cl)c1NC(=O)Oc1ccc(CC#N)cc1	-6	98	93	107
Cc1nnc(SCC(=O)N2CCCC2)n(N)c1=O	3	98	106	106
Cc1cc(C)c(NC(=O)C2Nc3cc(F)ccc3S(=O)(=O)N2)c(C)c1 (stereo not drawn)	4	.	.	102
COc1cc(C2c3c(oc4ccc(F)cc4c3=O)C(=O)N2Cc2ccc3c(c2)OCO3)ccc1O (stereo not drawn)	-18	95	90	104
CCOC(=O)c1cc(CC)sc1NC(=O)C#Cc1ccccc1	-33	88	107	.
Cc1ccc(OCc2nc3c4ccccc4ncn3n2)cc1	-2	.	.	104
CCCCCCN1C(=O)CSC1c1ccccc1 (stereo not drawn)	-22	102	109	98
COc1ccc(-c2nocc2C#N)cc1	-20	83	98	100
O=C(NCC1CCCO1)c1ccccc1NS(=O)(=O)c1cccs1 (stereo not drawn)	-14	86	93	101
CN(Cc1c(F)cccc1Cl)Cn1nnc(-c2ccccc2)n1	-44	78	116	.
CC(C)(C)c1cc(NC(=O)CSc2nc3ccccc3c(=O)n2-c2ccc(Cl)cc2)on1	-7	102	121	.
O=C(Cc1csc(NC(=O)c2ccco2)n1)NC1CCCCCC1	-33	94	89	.
CC1(C)CC(=O)C=C(NC(=O)Nc2ccc(Cl)cc2)C1	-21	91	93	101
CC(C(=O)NCc1ccc2c(c1)OCO2)N1CCN(c2ccc(O)cc2)CC1 (stereo not drawn)	2	102	119	.
COc1ccc2c(c1)C(=O)CC(c1ccc(OC)c(OC)c1)O2 (stereo not drawn)	-9	83	92	97
O=C(CSc1nnc2n(CC3CCCO3)c(=O)c3sccc3n12)Nc1ccc2c(c1)OCO2 (stereo not drawn)	-11	.	.	105
Cc1ccc(OCc2nn(CN3CCC4(CC3)OCCO4)c(=S)n2C)cc1C	-36	81	99	.
COC(=O)CSc1nc2ccccc2c(=O)n1-c1ccccc1	-17	87	87	106
CC(CN1CCCC1)OC(=O)c1ccccc1Cl (stereo not drawn)	-3	87	96	.
CCN1C(=O)CC(Sc2ccccc2N)C1=O (stereo not drawn)	2	93	99	108
CCC(Oc1ccccc1)c1nc(-c2ccc(OC)c(OC)c2)no1 (stereo not drawn)	-2	.	.	112
O=c1[nH]c(=O)n(Cc2ccco2)c2c1C(C(F)(F)F)(C(F)(F)F)N=C(CCC1CCCCC1)N2	.	91	107	103
CCn1c2ccccc2c2nc3cc(C(=O)O)ccc3nc21	-69	102	108	.
Cc1c(C#N)c(N)nc(SCC(=O)c2ccc(Cl)cc2)c1C#N	-8	89	100	96

Reprinted at random: 5 compounds from above.
SMILES	HCMV NEC inh	Sa growth 42C second temp	Sa growth 42C	GIV Gai3 FP
CC(CN1CCCC1)OC(=O)c1ccccc1Cl (stereo not drawn)	-3	87	96	.
CCN1C(=O)CC(Sc2ccccc2N)C1=O (stereo not drawn)	2	93	99	108
COc1ccc(-c2nocc2C#N)cc1	-20	83	98	100
Cc1nnc(SCC(=O)N2CCCC2)n(N)c1=O	3	98	106	106
Cc1onc(-c2c(F)cccc2Cl)c1NC(=O)Oc1ccc(CC#N)cc1	-6	98	93	107

(listing goes on)
SMILES	HCMV NEC inh	Sa growth 42C second temp	Sa growth 42C	GIV Gai3 FP
Cc1nnc(SCC(=O)N2c3ccccc3CCc3ccccc32)s1	-2	.	.	96
CCCN(CCC)c1ccc(/C=N/n2cnnc2)cc1	-66	82	117	.
O=C(O)CCC(=O)Nc1ccc(Cc2ccncc2)cc1	4	103	88	.
O=C(CNC(=O)c1ccco1)OCc1ccc(Cl)cc1	-12	82	99	104
CC1=C(C(=O)Nc2cccc(C(F)(F)F)c2)C(c2ccc3c(c2)OCO3)C2=C(CCCC2=O)N1 (stereo not drawn)	16	.	.	108
Cn1c(C2CC(=O)N(Cc3cccs3)C2)nc2ccccc21 (stereo not drawn)	-12	80	93	98
CCOC(=O)N1CCC(NC(=O)c2ccc3c(c2)C(=O)N(C2CCN(C(=O)OCC)CC2)C3=O)CC1	-32	88	101	104
CC(=O)n1c(=O)c2ccccc2c(=O)n1-c1ccccc1	-15&-16	99	96	79*!
COCC(=O)Nc1cccc(NC(C)=O)c1	-14	79	122	105
Cc1ccc(Cl)cc1N1CCN(c2nc3ccc(C(=O)c4ccccc4)cc3n3cnnc23)CC1	.	95	82	108
C#CCn1c(=NC(=O)C2COc3ccccc3O2)sc2cccc(OC)c21 (stereo not drawn)	-27	83	102	97
COc1cccc2cc(-c3csc(-c4ccc(Cl)cc4)n3)c(=O)oc12	.	102	100	109
O=C(Nc1ccc(N2CCN(Cc3ccccc3)CC2)cc1)Nc1ccc(C(F)(F)F)cc1	-3	87	91	100
NC1=NC(=O)/C(=C/c2ccccc2OCC(=O)Nc2ccc(F)cc2)S1	-7	77	86	.
Cc1ccc(-c2nc(CS(=O)(=O)CC(=O)Nc3ccc(Br)cc3F)c(C)o2)cc1	-4	86	104	104
O=S(=O)(c1ccc(Br)cc1)c1nc(-c2ccco2)oc1SCc1ccccc1F	-10	84	79	101
CCC(c1nnnn1C(C)(C)CC)N(Cc1cc2ccc(C)cc2[nH]c1=O)C1CCCC1 (stereo not drawn)	-24	87	95	100
c1ccc(Cn2c(SCCOc3ccccc3)nnc2-c2ccco2)cc1	-28	75	76	.
O=C1OC(c2ccccc2)=C/C1=C/N1CCOCC1	-46	79	101	100
CCC1CCCCN1C(=O)c1cc2ncc(Br)cn2n1 (stereo not drawn)	2	103	103	106
COC(=O)CSC1=C(C#N)C(c2ccc(Cl)cc2)C(C(=O)OC(C)(C)C)=C(C)N1 (stereo not drawn)	-9	.	.	102
CN(C)C=NC1=C(c2ccccc2)C(=O)c2ccccc21	-250	80	81	100
O=C1C2CCCN2C(=S)N1C1CCCCC1 (stereo not drawn)	-4	93	64	104
CC(C)c1nc2sc3c(NCC4CCCO4)ncnc3c2c2c1CCCC2 (stereo not drawn)	.	103	114	98
CCOc1ccc(-c2cc(NC(=O)c3noc4c3CCCCC4)on2)cc1OCC	-27	84	91	98
O=C(O)CNCC1COc2ccccc2O1 (stereo not drawn)	2	100	113	103
CCOc1ccc(S(=O)(=O)NCC(c2cccs2)S(=O)(=O)c2ccc(C)cc2)cc1 (stereo not drawn)	.	93	121	96
CC(C)(C)NC(=O)Cn1c(=O)n(CC(=O)NC(C)(C)C)c2ccccc21	7	78	88	105
C=CCn1c(=S)sc2c(=O)[nH]c(C)nc21	-20	79	104	98
Cc1ccc(NC(=O)N2CCN(c3cc(=O)n4nc(-c5ccccc5C)sc4n3)CC2)c(Cl)c1	5	.	.	92
CSCc1c(C(=O)Nc2ccc(NC(C)=O)cc2)oc2ccccc12	-1	89	98	.
Cc1cc(C)n(-c2nc3ccccc3nc2Nc2ccc3c(c2)OCO3)n1	-24	.	.	107
CC(=O)c1ccc(NC(=O)c2cc(C)nn2-c2ccccc2)cc1	-39	94	102	104
CC(=O)Nc1ccc(Nc2ncnc3ccc(Br)cc23)cc1	-44	80	89	100
N#CCSc1nc2c(sc3ccccc32)c(=O)n1CCCN1CCOCC1	.	79	103	102
Cc1cccc(OCCOc2ccc(Br)cc2/C=C2\SC(=S)NC2=O)c1	.	81	125	107
CNCc1ccc(-c2cc(Cl)ccc2Cl)o1	1	.	.	100
COc1cccc(NC(=O)c2c(Cl)nc3sccn23)c1	-2	91	88	.
O=C(Nc1cccc(F)c1)C1CCN(c2nc3ccccc3nc2C(F)(F)F)CC1	8	88	101	98&103
N#CC1=C(N)SC(N)=C(C#N)C1c1cccc(C(F)(F)F)c1	-50	74	80	-83*
O=C(NC1CCN(Cc2ccccc2)CC1)c1cn(-c2ccccc2)nc1-c1cccs1	-28	92	93	.
C/C(N)=C(/C#N)C(=O)CSc1nnc(COc2cc(C)ccc2C)o1	-9	95	103	.
CC(=O)Nc1ccccc1C(=O)N1CC2(C)CC1CC(C)(C)C2 (stereo not drawn)	-2	91	113	100
COc1ccc(OC)c(-c2nc(C(N)=O)c3c(n2)n(-c2ccc(F)cc2)c(=O)n3C)c1	-13	.	.	106
Cc1cc(C)cc(NC(=O)C2(c3cccs3)CCOCC2)c1	.	84	134	99
COc1cccc(CSc2nc3n(n2)C(CC(C)C)C(C(=O)Nc2ccccc2C)=C(C)N3)c1 (stereo not drawn)	.	89	142	103
Cc1ccc(C)c(NC(=O)Cn2c(=O)ccc3cc(S(=O)(=O)N4CCCC4)ccc32)c1	.	87	109	98
CN1C(=O)C(C)(C)c2cc(S(=O)(=O)N(C)CC(=O)N3CCN(c4ccccn4)CC3)ccc21	-10	.	.	106
O=c1c(/C=N/O)coc2ccccc12	-6	88	83	.
COC(=O)C1CCN(C(=O)c2sc3ccccc3c2Cl)CC1	5	87	102	109

The listing continues.
SMILES	HCMV NEC inh	Sa growth 42C second temp	Sa growth 42C	GIV Gai3 FP
Cc1ccc(O)c(NC(=O)c2cc(-c3ccc4c(c3)OCO4)on2)c1	-1	86	95	102
O=S1(=O)CCC(SCc2nnc(-c3ccccc3)o2)C1 (stereo not drawn)	-21	88	91	99
Oc1cccnc1NC(c1ccc(F)cc1)c1ccc2cccnc2c1O (stereo not drawn)	0	27	32	.
COc1ccc(C2C3(C#N)C(N)=NC4(OCCO4)C23C#N)cc1 (stereo not drawn)	.	75	94	98
CCC(C)(C)NC(=O)C1CCN(S(=O)(=O)c2c(C)noc2/C=C/c2ccc(C)cc2)CC1	.	84	106	105
O=C(NC1CCCC1)c1ccc(N2C(=O)CCS2(=O)=O)cc1	14	.	.	100
O=C(CN1C(=O)c2ccccc2C1=O)Nc1nccs1	.	96	105	100

From PubChem
